# Screening data from PubChem.
# Ecoli growth: E. coli growth inhibition, primary screen, OD600; AID 1053175, 2014; Escherichia coli growth, 23 h; hits give low values; OD600 absorbance (no concentration beside the values); hit rate 0.21% among 330,000;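 active means OD600 absorbance below the run mean of sample wells minus 3.6 SD, in any replicate, cut at about 0.56 in these data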;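 further: stock transfer was 300 nL into about 60 µL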
# Vif TR-FRET: inhibitors of Vif binding to APOBEC3G peptide, primary screen, biochemical, TR-FRET, GST-Vif 1-94, biotin-A3G peptide, dose response retest (AID 1117319). inhibition, %, or IC50 in µM where a hit was titrated. TR-FRET GST-Vif / biotin-A3G peptide binding; higher % means a stronger effect; test concentration not given here; strong numbers were not always called active. hit rate 0.57% among 260,000. Virion infectivity factor (Human immunodeficiency virus type 1 group M subtype B (isolate …;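 active means above the screen mean plus three standard deviations and confirmed in dose response; inconclusive means results disagree or hit not tested in dose response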;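 further: Vif residues 1-94 fused to GST binding biotinylated APOBEC3G peptide 110-148; 0% = full assay without inhibitor and 100% = GST in place of GST-Vif; retest series ran down from 100 µM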
# MLL AF4-AF9 inh: inhibitors of AF4 peptide binding to AF9, primary screen, biochemical, AlphaScreen, biotin-AF4 peptide, FLAG-AF9, single point. Protein AF-9 (Homo sapiens), P42568. inhibition, % at 10 µM. hit rate 0.47% among 350,000. AID 651704, 2012;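 active means every replicate reaching a set inhibition limit, whatever the replicate mean, cut at about 25% in these data; inconclusive means mean inhibition reaches that limit but some replicates miss it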;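 further: 0% = plate neutral control median and 100% = total signal loss; the record names both 10 and 1 µM as test concentration; the first replicate is given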
# Target sequence (P42568 whole entry, looked up): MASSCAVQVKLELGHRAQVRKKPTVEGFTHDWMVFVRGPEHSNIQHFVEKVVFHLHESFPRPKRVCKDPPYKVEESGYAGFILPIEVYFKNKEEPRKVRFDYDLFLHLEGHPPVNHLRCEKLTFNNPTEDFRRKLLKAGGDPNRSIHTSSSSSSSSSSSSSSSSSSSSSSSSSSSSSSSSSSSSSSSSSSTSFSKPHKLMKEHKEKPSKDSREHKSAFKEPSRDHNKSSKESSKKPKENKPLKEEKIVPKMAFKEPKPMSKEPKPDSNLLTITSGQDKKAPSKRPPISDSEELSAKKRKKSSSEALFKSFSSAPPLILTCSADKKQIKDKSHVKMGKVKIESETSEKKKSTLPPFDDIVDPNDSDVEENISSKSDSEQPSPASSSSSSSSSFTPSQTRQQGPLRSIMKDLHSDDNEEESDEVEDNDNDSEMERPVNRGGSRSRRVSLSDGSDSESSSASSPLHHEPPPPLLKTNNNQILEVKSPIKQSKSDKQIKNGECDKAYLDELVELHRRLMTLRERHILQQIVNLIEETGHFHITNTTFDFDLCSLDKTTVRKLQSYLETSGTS
# ALR H2O2 inh: inhibitors of human ALR sulfhydryl oxidase, primary screen, biochemical, H2O2 detection, HRP-luminol luminescence, single point; FAD-linked sulfhydryl oxidase ALR (Homo sapiens), P55789; hit rate 3.8% among 290,000; purified ALR, DTT oxidation; inhibition, % (no concentration beside the values);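 active means mean and each replicate at 75% or more; inconclusive means only one of the two met; inactive means neither met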;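 further: stock transfer was 7.5 nL into about 7.5 µL; 0% = neutral wells and 100% = wells with inactivated enzyme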
# Target sequence (P55789 whole entry, looked up): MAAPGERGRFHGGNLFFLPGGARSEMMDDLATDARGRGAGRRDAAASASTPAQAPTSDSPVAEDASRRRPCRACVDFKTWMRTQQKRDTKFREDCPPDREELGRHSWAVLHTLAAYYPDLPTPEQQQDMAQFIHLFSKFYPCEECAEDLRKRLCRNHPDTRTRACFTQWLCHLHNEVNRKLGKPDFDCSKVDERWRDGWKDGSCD
# FGF22 binding: binders of human FGF22 protein, primary screen, FGF22 synaptogenesis inhibitor project, biophysical, thermal shift, single point; Fibroblast growth factor 22 (Homo sapiens), Q9HCT0; recombinant FGF22 thermal shift, SYPRO orange fluorescence; percent of sucrose octasulfate shift, DMSO zero; calls only at 9.99 µM; hit rate 1.5% among 340,000; AID 651658, 2012;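 active means melting point raised past a set limit in the mean and every replicate; inconclusive means no clear call; three in four hits are not shown here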
# Target sequence (Q9HCT0 whole entry, looked up): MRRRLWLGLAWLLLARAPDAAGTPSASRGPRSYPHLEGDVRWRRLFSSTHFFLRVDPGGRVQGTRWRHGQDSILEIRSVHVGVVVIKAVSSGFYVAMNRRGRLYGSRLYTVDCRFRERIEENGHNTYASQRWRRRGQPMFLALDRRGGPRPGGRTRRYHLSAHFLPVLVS
# Ecoli rRNA inh: reduced GFP signal of wild-type E. coli, primary screen, bacterial rRNA inhibitor project, GFP/RFP fluorescence, OD600, single point; GFP signal change (wild-type ribosome), % (concentration not given with the values); AID 720706, 2013; E. coli WT GFP vs humanized-ribosome RFP mutants, 24 h; hits give low values; DMSO median 0, no signal -100; hit rate 1.6% among 350,000;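 active means significant combined selectivity score with lowered wild-type GFP, culture density cut under 30%, mutant RFP and density less affected; inactive means any of these conditions unmet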; further: one replicate is shown; some compounds called inactive have numbers as strong as hits
# HNF4A DNA FP: change in binding of human HNF4A to DNA, primary screen, biochemical, fluorescence polarization, FITC-DNA | 1 h | AID 1224865, 2016 | hit rate 0.3% among 360,000 | activity change, % at 10 µM | Hepatocyte nuclear factor 4-alpha (Homo sapiens), P41235; in the data active means activity change above about 30%, passing the limit was not always enough;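 further: controls were the assay level and a saturating level of protein; the project sought stronger binding though the title names inhibitors; some compounds called inactive have numbers as strong as hits; positive values seem to mean higher polarization but the record does not say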
# Ecoli rRNA inh OD600: further read-out of Ecoli rRNA inh, marked with its call; OD600 change, %; measured here: OD600 growth;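 optical density of the mix in the first replicate; 0 = DMSO median and -100 = no signal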
# Ecoli rRNA inh RFP: also measured in Ecoli rRNA inh; calls as there; RFP signal change, %; measured here: RFP humanized mutant strains;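 first replicate; 0 = DMSO median and -100 = no signal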
# * marks the source's active call; other numbers are inactive results; i = inactive; ? = inconclusive; / = not tested or not shown. A portion of the library; rates above refer to the full screens.
# The line under a structure holds: MLL AF4-AF9 inh	FGF22 binding	HNF4A DNA FP	Ecoli rRNA inh OD600	ALR H2O2 inh	Vif TR-FRET	Ecoli rRNA inh	Ecoli rRNA inh RFP	Ecoli growth
> CC1=C(C(=O)N(C)C)CC(CC(=O)NC2CCCCC2)C(=O)N1Cc1ccc(C(C)(C)C)cc1 (configuration not stated)
  -2.6	i	4.0	/	/	1%	/	/	/
> Cc1ccccc1N=Nc1c(O)[nH]c2ccccc12
  2.2	i	1.9	-9	/	/	5	2.9	0.65
> Cc1ccccc1NC(=O)CSc1nnc(C)c(=O)[nH]1
  -2.7	i	0.0	8	-7	4%	12	1.4	0.71
> Cc1ccc(C(=O)N/C(=C\c2cccc([N+](=O)[O-])c2)C(=O)Nc2cccc(C(=O)O)c2)cc1
  -1.6	i	3.2	15	/	/	-2	-6.0	0.67
> c1cc2c(cc1NC1CCCCCC1)OCO2
  14	i	-2.8	4	26	/	10	0.5	0.61
> COc1ccc2cc(CCNC(=O)C(C)(C)C)c(=O)[nH]c2c1
  -3.2	i	0.1	9	-3	-1%	5	0.9	0.67
> Cc1ccccc1S(=O)(=O)N1[C@H](C#N)[C@H](c2ccc(C#CC3CCCCC3)cc2)[C@H]1CO
  -1.1	i	/	0	/	/	4	-1.0	/
> COc1ccccc1NC(=O)c1c(NC(=O)CCC(=O)O)sc2c1CCCCC2
  1.3	i	-4.6	0	98*	/	11	10	0.64
> O=C(Nc1ccc(C(=O)N2CCCC2)cc1)c1ccccc1F
  7.5	i	-1.4	-4	1	1%	5	-7.9	0.69
> O=c1c2ccccc2nc(/C=C/c2c[nH]c3ccccc23)n1CCO
  11	i	-1.1	-12	69	/	-10	5.0	0.68
> CC(C)c1nnc(NC(=O)CSc2ncn[nH]2)s1
  /	/	-2.8	/	-2	9%	/	/	0.68
> COc1ccc(C(C)=O)c(Oc2nc(CN3CCOCC3)nc3scc(-c4cccs4)c23)c1
  /	/	-1.7	/	3	0%	/	/	0.7
> COc1ccc(C(=O)CNC2=NCCC2)cc1
  -0.4	/	-2.3	-3	-15	8%	12	-1.2	0.72
> Cc1ccc(CN2CC(C(=O)Nc3cccc(C)n3)CC2=O)cc1 (configuration not stated)
  0.4	i	-1.4	3	2	-9%	-4	-1.0	0.7
> CCCCCCCOc1ccc(C2CC(=O)N(C)C2=O)cc1 (configuration not stated)
  -2.6	i	-0.6	4	3	5%	-7	1.2	0.62
> NNC(=O)COc1ccccc1F
  0.8	i	-1.0	11	/	-6%	6	-4.8	0.69
> CCOC(=O)c1cc(-c2sc(NC(=O)c3ccccc3)nc2C)n(CCO)n1
  0.7	i	-8.5	-6	/	5%	-2	0.2	/
> C[C@H](CO)N1C[C@H](C)[C@H](CN(C)Cc2ccc(C(=O)O)cc2)Oc2ccc(NC(=O)Cc3cn(C)c4ccccc34)cc2CC1=O
  -10.0	i	/	3	/	/	4	-0.3	/
> CCOC(=O)C1=CN(c2cccc(F)c2)C=C(C(=O)OCC)C1c1cc(OC)c(O)c([N+](=O)[O-])c1
  /	/	0.2	/	0	?	/	/	0.67
> Cc1ccc(S(=O)(=O)NCC(=O)OCC(=O)c2ccc(Cl)s2)cc1
  0.8	i	3.0	17	/	-9%	18	4.3	0.69
> Cc1cccc(-c2c3c(=O)n(C)c(=O)n(C)c3c3cccnn23)c1
  /	/	3.4	/	/	-1%	/	/	0.67
> CC1CCC(C(C)C)C(OC(=O)CSc2n[nH]c(=O)[nH]c2=O)C1 (configuration not stated)
  /	/	-0.8	/	?	-2%	/	/	0.69
> CCCCc1cc(=O)oc2cc(OCC(=O)N3CCC(C(=O)O)(c4ccccc4)CC3)ccc12
  -0.9	i	3.0	/	0	/	/	/	0.7
> CCOC1=C2[C@H](c3ccc(C)cc3)N(S(=O)(=O)c3ccc(C)cc3)C[C@H]2n2c(=O)n(-c3ccccc3)c(=O)n2C1
  -0.1	i	3.7	16	/	/	10	-0.7	/
> O=S(=O)(c1cccs1)N1CCN(CC(O)COc2cccc(Br)c2)CC1 (configuration not stated)
  /	/	0.8	-31	-8	29%	-8	-0.6	0.7
> COc1ccc(-c2nnc(SCc3cccnc3)o2)cc1
  /	/	2.2	/	-15	25%	/	/	0.7
> CCC(C)c1c(O)nc(SCC(=O)Nc2ccccc2)[nH]c1=O (configuration not stated)
  /	/	1.6	/	99*	0%	/	/	0.72
> COc1ccccc1NC(=O)CSc1ccc2nnc(-c3cccnc3)n2n1
  5.0	i	-3.2	-1	/	6%	3	1.4	0.74
> FC(F)(F)c1cc(-c2ccccc2)nc(NC2CCCC2)n1
  /	/	-5.5	/	-5	27%	/	/	0.71
> CSc1ncccc1C(=O)OCC(=O)NC(C)C
  0.3	i	-3.2	5	6	-7%	18	3.1	0.67

# The results go on:
# The line under a structure holds: MLL AF4-AF9 inh	FGF22 binding	HNF4A DNA FP	Ecoli rRNA inh OD600	ALR H2O2 inh	Vif TR-FRET	Ecoli rRNA inh	Ecoli rRNA inh RFP	Ecoli growth
> CC(=O)c1c(C)[nH]c(-c2ccccc2)nc1=S
  -5.7	i	1.4	5	16	-2%	22	10	0.68
> O=C(NCc1ccccc1Cl)C1CCN(c2ncnc3c2nc2n3CCCCC2)CC1
  0.8	i	1.1	7	1	-1%	5	1.9	0.7
> O=C1/C(=C\c2ccccc2Cl)SC(=S)N1CCC(=O)N1CCCc2ccccc21
  /	/	8.2	/	-7	/	/	/	0.76
> CC(C)(C)c1cc(NC(=O)COC(=O)c2ccc3c(=O)n4c(nc3c2)CCC4)n(-c2ccccc2)n1
  /	/	2.5	/	0	-7%	/	/	0.71
> O=c1[nH][nH]c2c([N+](=O)[O-])ccc(F)c12
  1.1	i	/	15	/	/	1	13	/
> Cc1cc(C(=O)Nc2cccc(S(=O)(=O)N3CCCCC3)c2)c2ccccc2n1
  -2.9	i	-1.2	4	10	2%	6	-1.1	0.77
> COCCNC(=O)C1CCCN(S(=O)(=O)c2c(C)noc2/C=C/c2cccs2)C1 (configuration not stated)
  6.3	i	0.0	3	18	0%	0	-3.5	0.67
> CN(C)CCN1C(=O)C(=O)/C(=C(/O)c2ccc(F)cc2)C1c1ccccc1F (configuration not stated)
  /	/	4.7	/	2	12%	/	/	0.69
> CCc1ccc(NC(=O)CSc2nc(=O)n3cc(C)ccc3n2)cc1
  -9.0	i	2.8	-9	22	-22%	-2	-0.1	0.7
> C[C@@H]1CN([C@@H](C)CO)C(=O)c2cc(NC(=O)Nc3ccc4c(c3)OCO4)ccc2O[C@H]1CN(C)Cc1ccc(Cl)c(Cl)c1
  6.2	i	/	-14	/	/	-7	0.4	/
> O=C(C1=COCCO1)N(Cc1nnc(-c2ccccc2Cl)o1)C1CC1
  0.7	i	-1.2	-1	/	-11%	-1	-1.9	0.68
> CCCC(=O)Nc1nc2ccc(NC(=O)c3ccc(Br)o3)cc2s1
  /	/	1.6	/	-11	13%	/	/	0.73
> CCCCn1c(CCC(=O)O)nc2c1c(=O)[nH]c(=O)n2CCC
  /	/	-1.4	/	-1	?	/	/	0.74
> O=C1OC(c2ccc(F)cc2)=N/C1=C\c1ccc(Br)o1
  -1.8	i	2.4	12	-5	3%	11	1.1	0.67
> OCCNCc1c(OCc2ccc(Cl)cc2)ccc2ccccc12
  6.9	i	-0.6	-15	-14	/	-3	7.9	0.63
> CCC1CCCCN1S(=O)(=O)c1ccccc1 (configuration not stated)
  ?	i	2.8	21	2	/	3	0.3	0.66
> COc1cc(/C=C/c2noc(-c3ccccc3O)n2)cc(OC)c1OC
  /	/	2.6	/	-2	-7%	/	/	0.71
> CCC(=O)N1[C@@H](CO)[C@@H]2c3ccccc3N(C(=O)c3ccncc3)C[C@@H]21
  -2.3	i	/	14	/	/	4	-4.0	/
> COc1cccc(C(=O)OCn2nnc3ccccc3c2=O)c1OC
  -9.5	i	2.9	-19	-4	/	-6	-2.4	0.76
> COc1cccc(C(=O)NCCNC(=O)c2ccco2)c1
  -0.5	i	-0.6	6	-5	/	6	0.2	0.66
> CCOc1ccc(S(=O)(=O)NC(C)C(=O)NCc2cccnc2)cc1 (configuration not stated)
  -2.1	i	-0.7	19	3	/	3	-1.1	0.67
> COc1cc(OC)cc(C(=O)Nc2ccccc2NC(C)=O)c1
  /	/	-1.1	/	7	-3%	/	/	0.72
> COC(=O)c1cccc(NC(=O)c2nn(C)c(=O)c3ccccc23)c1
  /	/	1.6	/	/	-1%	/	/	0.7
> CCOc1ccccc1CNC(=O)CCNC(=O)Cn1ccc2ccccc2c1=O
  /	/	4.0	/	/	4%	/	/	0.69
> COC(=O)C1=C(C)N(C)C(=NCc2cccc(C(F)(F)F)c2)NC1c1ccccc1 (configuration not stated)
  0.9	i	/	-66	/	/	-43	20	/
> O=[n+]1c2c(n([O-])c3cc(Br)ccc31)CCC2
  /	/	-1.7	/	-7	19µM*	/	/	0.71
> COc1ccccc1NC(=O)CSc1nncn1-c1cccnc1
  -3.2	i	-3.8	-13	3	21%	5	2.6	0.63
> Cc1cc(C)cc(NC(=O)c2cccc3c2C(=O)N(C2CCCCC2)C3)c1
  /	/	1.7	/	-4	-2%	/	/	0.66
> CN(C(=O)c1ccc(F)cc1)c1ccccc1C(=O)NCc1ccccc1
  -0.3	i	4.1	2	5	-5%	14	-1.6	0.7
> COc1ccc(S[C@@H](CCN2CC[C@H](C)CCC2=O)c2ccccc2)cc1
  -16	i	-1.4	-56	-11	/	-29	-19	/

# Next section.
# The line under a structure holds: MLL AF4-AF9 inh	FGF22 binding	HNF4A DNA FP	Ecoli rRNA inh OD600	ALR H2O2 inh	Vif TR-FRET	Ecoli rRNA inh	Ecoli rRNA inh RFP	Ecoli growth
> CCn1cc(S(=O)(=O)CC(=O)Nc2ccc3c(c2)OCCO3)c2ccccc21
  /	/	1.1	/	-22	12%	/	/	0.68
> Cc1cc(C=NCCO)c(C)n1-c1cc(Cl)ccc1Cl
  2.5	i	4.2	-14	5	6%	-8	0.1	0.66
> O=[N+]([O-])c1ccccc1/C=C\C=N\N1CCN(c2ccccc2)CC1
  42*	i	1.3	-15	1	-3%	-17	-2.6	/
> O=C(COC(=O)c1ccc(OC(F)F)cc1)NCCNC(=O)COC(=O)c1ccc(OC(F)F)cc1
  1.3	i	1.0	6	-5	/	12	0.6	0.69
> CCC1Oc2ccccc2N(CC(=O)NCCCN2CCCCC2CC)C1=O (configuration not stated)
  -19	i	-0.1	12	-1	5%	10	-0.8	0.7
> Cn1c(SCc2ccc(F)cc2Cl)nc2ccccc2c1=O
  -0.3	i	-2.4	5	2	/	8	-0.5	0.68
> Cc1cc(C(=O)Nc2cccc3c2O[C@@H](CN(C)Cc2ccncc2)[C@H](C)CN([C@H](C)CO)C3=O)n(C)n1
  -0.8	i	/	-1	/	/	3	-0.1	/
> CCCCc1cc(=O)oc2cc(OCC(=O)NCCN3CCOCC3)c(Cl)cc12
  -2.0	i	-1.3	-4	-6	-8%	-7	-1.6	0.68
